Screens from PubChem BioAssay.
liver stage: Plasmodium liver-stage growth inhibition, dose response, imaging, Malaria Box, P. yoelii, HepG2-A16-CD81EGFP (AID 602156); P. yoelii liver stage in HepG2-A16-CD81EGFP, imaging; first-round cut-off not given here; calls after a first round at 10 µM; hits with a dose series show IC50 in µM; actives 4.8% (n = 5,700); in the data active = a potency from the dose series;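 note: infected cells exposed to compound for 48 hours before fixation; stained parasite area by imaging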
Starred values were filed as active, the others as inactive; i = inactive. A portion of the library; the hit share may differ from the screen's.

Cc1nn(CC(O)Cn2c3ccc(Br)cc3c3cc(Br)ccc32)c(C)c1Br (stereo not given)
  liver stage: i
CCOC(=O)c1c(N=Cc2cccc(OC)c2O)sc2c1CCN(C)C2
  liver stage: i
CCc1ccc(NC(=O)c2ccc(F)c(S(=O)(=O)N3CCN(C)CC3)c2)cc1
  liver stage: i
CCC(C)(C)c1ccc(OCCOCC[n+]2ccccc2)c(C(C)(C)CC)c1
  liver stage: 0.096µM*
CCCCCC[n+]1ccccc1C=Cc1ccc(N(C)C)cc1
  liver stage: i
CC1CCCCN1CCCNc1ncc(C(=O)NCCCN2CCCC2=O)c(NCC2CCCCC2)n1 (stereo not given)
  liver stage: i
N#Cc1c(-c2ccccc2)cc(N2CCN(C3CCCCC3)CC2)n2c1nc1ccccc12
  liver stage: i
COc1cccc(-c2ccc(O)c(CNCC3CCCCC3)c2)n1
  liver stage: i
CC12CN(Cc3ccccc3)CC(C)(CN(Cc3cccc(Br)c3)C1)C2
  liver stage: i
COc1ccccc1NC(=O)N(CCC(C)C)C(C)c1nc2ccccc2c(=O)n1-c1ccccc1Cl (stereo not given)
  liver stage: i
CC1(C)CC(=O)C2=C(C1)NC(=O)CC2c1ccc(C(C)(C)C)cc1 (stereo not given)
  liver stage: i
COc1c(C=NNc2nc(Nc3ccc([N+](=O)[O-])cc3)nc(N3CCN(C)CC3)n2)cccc1[N+](=O)[O-]
  liver stage: i
Cc1cc(/C=C2/SC(=Nc3ccccc3)NC2=O)c(C)n1-c1cccc([N+](=O)[O-])c1
  liver stage: i
Cc1cc(N2CCCCC2)nc2ccc(NC(=O)c3cccc([N+](=O)[O-])c3)cc12
  liver stage: i
CCOC(=O)c1cnc2c(C)cc(C)cc2c1Nc1ccc(C(C)=O)cc1
  liver stage: i
Cc1ccccc1N1C(=O)N(c2ccccc2)C2CS(=O)(=O)CC21 (stereo not given)
  liver stage: i
CCOC(=O)c1sc(NC(=O)CSc2nnc(CNC(=O)c3ccco3)n2-c2ccc(F)cc2)c(C(=O)OCC)c1C
  liver stage: i
O=C1N(c2ccccc2)C[C@@H]2C[C@@H](c3ccc4nsnc4c3)N3CCC[C@@]123
  liver stage: i
O=C(Cn1c(=O)oc2cc(S(=O)(=O)NCc3ccccc3)ccc21)NC1CCCCC1
  liver stage: i
N#Cc1ccccc1Cn1ccc(=NCc2ccccc2)cc1
  liver stage: i
N#CCCN(CC1CCCO1)C(=O)Nc1ccc(Cl)c(C(F)(F)F)c1 (stereo not given)
  liver stage: i
COc1ccc(CCNc2ncnc3c2[nH]c2ccccc23)cc1
  liver stage: i
CC(C)CSc1nc2sc3c(c2c(=O)n1-c1ccccc1)CCN(Cc1ccccc1)C3
  liver stage: i
FC(F)(F)c1cccc(NC(=S)N2CCCC2c2ccncc2)c1 (stereo not given)
  liver stage: i
COc1ccccc1CNC(=O)CN1C(=O)c2cccnc2Oc2ccccc21
  liver stage: i

CC[n+]1c(C=CN(C)C)sc2ccccc21
  liver stage: i
O=C(c1cccc(Cl)c1)N1CCN(c2ccc([N+](=O)[O-])c(NC3CC3)c2)CC1
  liver stage: 3.2µM*
COc1ccc(-c2noc(-c3cccc(I)c3)n2)cc1OC
  liver stage: i
CN1CCCC1CCNc1ncc(C(=O)NCc2ccccc2)c(NCC2CCCCC2)n1 (stereo not given)
  liver stage: i
CCOC(=O)C1CCN(C(c2cc3cc(OC)c(OC)cc3[nH]c2=O)c2nnnn2C(C)(C)C)CC1 (stereo not given)
  liver stage: i
CSc1nc(N)c2c3c(sc2n1)CCCC3
  liver stage: i
CCOC(=O)C[n+]1cc(CC)sc1N
  liver stage: i
CCOC(=O)C1=C(C)NC2=C(C(=O)CC(c3ccc(Cl)cc3)C2)C1c1ccc(F)cc1 (stereo not given)
  liver stage: i
COc1ccc(CCNC(=O)Cn2c(C)cc3ccccc3c2=O)cc1OC
  liver stage: i
CC1CCN(S(=O)(=O)c2ccc(C(=O)NCc3ccco3)cc2)CC1
  liver stage: i
CCCCCn1c(SCc2ccc(C)cc2)nc2cc(C(=O)NCc3ccco3)ccc2c1=O
  liver stage: i
CN(CCCNc1ccnc2cc(Cl)ccc12)C(=O)c1ccc(C(F)(F)F)cc1
  liver stage: i
CCc1ccccc1NC(=O)C1c2ccccc2C(=O)N(CC(C)C)C1c1cccs1 (stereo not given)
  liver stage: i
CCOc1ccc(N2C(=O)C3C4CC(C(Br)C4Br)C3C2=O)cc1 (stereo not given)
  liver stage: i
CC(=O)N1CCN(C(=O)CCCSc2nnc(-c3ccc(C)cc3)n2-c2cccc(C)c2)CC1C (stereo not given)
  liver stage: i
COc1ccc(S(=O)(=O)N2CCCCC2C(=O)NC(CN2CCCC2)c2ccccc2)cc1 (stereo not given)
  liver stage: i
CCOC(=O)C(=O)N1c2ccc(C)cc2-c2c(ssc2=S)C1(C)C
  liver stage: i
CCCNC(=O)c1ccc(OC2CCN(CC(c3ccccc3)c3ccccc3)CC2)c(OC)c1
  liver stage: i
Cc1ccc(C)c(NC2=C(c3ccc(C(F)(F)F)cc3)C(=O)c3ccccc32)c1
  liver stage: i
CCCOC(=O)C1=C(C)NC2=C(C(=O)CC(c3ccc(OC)c(OC)c3)C2)C1c1ccc(O)c(OCC)c1 (stereo not given)
  liver stage: i
COc1cc(OC)cc(C(=O)Oc2ccccc2-c2nc3cc(C)ccn3c2NC(C)(C)CC(C)(C)C)c1
  liver stage: i
Cc1cc(-c2ccc(O)c(CN3CCCCCC3)c2)c2ccccc2n1
  liver stage: i
N=c1c2c(n(Cc3ccccc3)c3c1CCC3)CCC2
  liver stage: i
CCC1CCCCN1CCCNC(=O)c1cn(CC)c(=O)c2cc(OC)c(OC)cc12 (stereo not given)
  liver stage: i
N#C/C(=C\c1cn(Cc2ccc(Cl)cc2Cl)c2ccccc12)c1nc2ccccc2[nH]1
  liver stage: i

Shown as a markdown table: entries from further up
| Molecule | liver stage |
| --- | --- |
| CC[n+]1c(C=CN(C)C)sc2ccccc21 | i |
| CCCOC(=O)C1=C(C)NC2=C(C(=O)CC(c3ccc(OC)c(OC)c3)C2)C1c1ccc(O)c(OCC)c1 (stereo not given) | i |
| Cc1cc(-c2ccc(O)c(CN3CCCCCC3)c2)c2ccccc2n1 | i |
| Cc1ccc(C)c(NC2=C(c3ccc(C(F)(F)F)cc3)C(=O)c3ccccc32)c1 | i |
| CCC1CCCCN1CCCNC(=O)c1cn(CC)c(=O)c2cc(OC)c(OC)cc12 (stereo not given) | i |

Returning to the listing; the 2 compounds before the break are reprinted first.
CCC1CCCCN1CCCNC(=O)c1cn(CC)c(=O)c2cc(OC)c(OC)cc12 (stereo not given)
  liver stage: i
N#C/C(=C\c1cn(Cc2ccc(Cl)cc2Cl)c2ccccc12)c1nc2ccccc2[nH]1
  liver stage: i
CCOC(=O)N1CCN(C(=O)c2ccc(N3CC4CC(C3)c3cccc(=O)n3C4)c(NS(=O)(=O)c3ccc4c(c3)OCCO4)c2)CC1 (stereo not given)
  liver stage: i
N#CCSc1ncccc1C(=O)NCCc1ccc(Oc2ccccc2)cc1
  liver stage: i
O=C(NC(=CC=Cc1ccccc1)C(=O)N1CCOCC1)c1ccccc1
  liver stage: i
COC(=O)C1=CNC=C(C(=O)OC)C1c1cc(Br)ccc1OC
  liver stage: i
O=C(/C=C/c1ccccc1)c1c(-c2ccccc2)c2cc([N+](=O)[O-])ccc2[nH]c1=O
  liver stage: i
COCCN(CC(O)CNC(=O)c1ccc2ccccc2n1)S(=O)(=O)c1c(C)noc1C (stereo not given)
  liver stage: i
Cc1oc2c(c1C(=O)N1CCN(C)CC1)C(=O)c1ccccc1C2=O
  liver stage: i
Cc1ccc(/C=C2/SC(=Nc3ccccc3)NC2=O)c(C)c1
  liver stage: i
COc1cc2c(cc1C=C(C#N)c1cccc(C)c1)OCO2
  liver stage: i
O=C1C(Nc2ccccc2)=C(n2nnc3ccccc32)C(=O)c2ccccc21
  liver stage: i
CCN(CC)[P+](N(C)C[Si](C)(C)C)(N(CC)CC)N(CC)CC
  liver stage: i
O=C(OCCOc1ccc([N+](=O)[O-])cc1)c1ccc(Br)o1
  liver stage: i
Cc1ccc(C)c(Nc2nc(NCC3CCCO3)c3ccccc3n2)c1 (stereo not given)
  liver stage: i
Cc1cc(Nc2ccc(C)c(F)c2)n2nc(C)nc2n1
  liver stage: i
CCOC(=O)C1=C(C)NC2=C(C(=O)C(C(=O)OCC)C(c3ccc(OC)cc3)C2)C1c1ccc(OC)c(OC)c1 (stereo not given)
  liver stage: 0.24µM*
Cc1c(Cl)cccc1NC(=O)C1C(C(=O)O)C2C=CC1C21CC1 (stereo not given)
  liver stage: i
O=C(Cn1c2ccccc2c(=O)c2ccc(Cl)cc21)Nc1cccc(Cl)c1
  liver stage: i
CCOC(=O)C1=C(C)NC2=C(C(=O)C(C(=O)OC)C(C)C2)C1c1cc(Br)c(OCC)c(OC)c1 (stereo not given)
  liver stage: i
CCC[n+]1c(C=C2Sc3ccccc3N2CC)ccc2ccccc21
  liver stage: i
CS(=O)(=O)N(CCc1ccccc1)CC(O)CN1CCC(CNC(=O)NC(c2ccccc2)c2ccccc2)CC1 (stereo not given)
  liver stage: i
O=[N+]([O-])c1ccc(S(=O)(=O)N2CCN(C(=S)NCC3CCCO3)CC2)cc1 (stereo not given)
  liver stage: i
CCc1c(C#N)c(N)nc(SCC(=O)c2ccc(C)cc2)c1C#N
  liver stage: i
CC(C)COc1nc(-c2ccccc2)n(S(=O)(=O)c2cccc3cccnc23)n1
  liver stage: i
CC(C)CN1C(=O)c2ccccc2C(C(=O)Nc2cccc(Cl)c2)C1c1cccs1 (stereo not given)
  liver stage: i
O=C(Nc1ccc(Cl)cc1)c1c2c(nc3ccccc13)-c1ccccc1CC2
  liver stage: i

CCN1C(=CC=Cc2n(CC)c3cc(C#N)ccc3[n+]2CC)Oc2ccc(-c3ccccc3)cc21
  liver stage: i
CCOC(=O)c1cnc2ccccc2c1Nc1ccc(OC)c(OC)c1
  liver stage: i
CCOC(=O)C1=C(C)N=c2sc(=Cc3ccccc3OC(C)=O)c(=O)n2C1c1ccc(OC)cc1 (stereo not given)
  liver stage: i
COC1=C(Nc2cccc(C(F)(F)F)c2)C(=O)c2ccccc2C1=O
  liver stage: i
CCN1CCN(c2nc3ccccn3c(=O)c2C=C2SC(=S)N(C(C)C)C2=O)CC1
  liver stage: i
CCCCOc1ccc(C(O)C(CN2CCCCC2)c2ccccc2)cc1 (stereo not given)
  liver stage: i
COC(=O)[C@@H]1C[C@@H](NC(=O)c2ccc(OC)cc2)CN1CC(c1ccccc1)c1ccccc1
  liver stage: i
Cc1ccc(S(=O)(=O)N=C(NS(=O)(=O)c2ccc(C)cc2)c2ccccc2)cc1
  liver stage: i
COc1cc(OC)c(N(C)C(=O)c2cc3c(s2)-c2ccccc2S(=O)(=O)C3)cc1Cl
  liver stage: i
O=C(Nc1cc(C(F)(F)F)ccc1N1CCOCC1)C(Cl)(Cl)Cl
  liver stage: i
COc1ccc(-c2noc(CC(=O)Nc3ccccc3C#N)n2)cc1
  liver stage: i
O=C(COc1ccc(Cl)cc1)Nc1nnc(-c2ccc3c(c2)OCO3)s1
  liver stage: i
Cc1cccc[n+]1CCCCCCCCCC[n+]1ccccc1C
  liver stage: i
CCOC(=O)c1ccc(NCc2c(C)[nH]c(C(=O)OCC)c2C)cc1
  liver stage: i
C(=NNc1nc2ccccc2[nH]1)c1c[nH]c2ccccc12
  liver stage: i
CC[C@@H](C(=O)[C@@H](C)[C@@H](O)[C@H](C)CCc1ccc(C)c(O)c1C(=O)O)[C@H]1O[C@](CC)([C@H]2CC[C@](O)(CC)[C@@H](C)O2)C[C@@H]1C
  liver stage: i
CC1CCCN(C(=O)C2CCN(Cc3ccccn3)CC2)C1 (stereo not given)
  liver stage: i
COC(=O)C1=C(C)NC2=C(C(=O)CC(c3ccc(OC)c(OC)c3)C2)C1c1cccs1 (stereo not given)
  liver stage: i
CCCCCc1nnc(NC(=O)c2ccc(-c3ccc(OC)cc3)cc2)s1
  liver stage: i
c1ccc2c(c1)CSc1sccc1C2=C1CCNCC1
  liver stage: i
O=C(Nc1ccc(-c2nc3ccc(-c4nc5ccc(NC(=O)c6ccccc6[N+](=O)[O-])cc5[nH]4)cc3[nH]2)cc1)c1ccccc1[N+](=O)[O-]
  liver stage: i
COc1ccc(C2Sc3ccccc3NC3=C2C(=O)c2ccccc23)cc1 (stereo not given)
  liver stage: 0.71µM*
COc1ccc2nc(C)cc(Nc3ccc(Cl)c(Cl)c3)c2c1
  liver stage: 0.44µM*
CC1CC2=C(CC1CNCCCN(C)C)C(C)(C)CCC2 (stereo not given)
  liver stage: i
COc1ccc(CN(Cc2ccc(C(C)C)cc2)S(=O)(=O)c2ccc(S(=O)(=O)N3CCN(c4ccccc4F)CC3)cc2)cc1
  liver stage: i

c1ccc2c(c1)c1c(c3ccccc32)CN2CCCC2C1 (stereo not given)
  liver stage: i
CCN(CC)CCNc1nc(C=Cc2ccc(Cl)cc2)nc2cc3ccccc3cc12
  liver stage: i
CN(C)C(=O)CN(C)C(=O)c1cnc2scc(C(C)(C)C)n2c1=O
  liver stage: i
CN1/C(=C/c2cccc[n+]2C)Sc2ccccc21
  liver stage: i
COc1ccc(/C=C2\SC(=O)NC2=Nc2ccccc2)cc1
  liver stage: i
COc1ccc(Cl)cc1NC(=O)CSC1=C(C#N)C(c2ccccc2)C(C(=O)Nc2ccccc2)=C(C)N1 (stereo not given)
  liver stage: i
O=c1c2sccc2nc(SCc2cccc([N+](=O)[O-])c2)n1C1CC1
  liver stage: i
COC(=O)C1=C(C)NC2=C(C(=O)CC(c3ccccc3Cl)C2)C1c1ccc([N+](=O)[O-])cc1 (stereo not given)
  liver stage: 0.84µM*
COc1ccc(C2CC(=O)C3=C(C2)NC(C)=C(C(=O)OC(C)C)C3c2ccc([N+](=O)[O-])cc2)cc1OC (stereo not given)
  liver stage: i
C/C(Cl)=C/C[N+]1(CC#Cc2cccc3ccccc23)CCOCC1
  liver stage: i
CC1=C(C(=O)OC2CCCCC2)C(c2ccc(F)cc2)C2=C(CC(c3ccccc3)CC2=O)N1 (stereo not given)
  liver stage: i
O=C(Cc1ccc(Cl)cc1)NNS(=O)(=O)c1ccc([N+](=O)[O-])cc1
  liver stage: i
CCNC(=O)N1CCN(CCN(C/C=C/c2ccccc2OC)C(=O)CC(C)CC(C)(C)C)CC1 (stereo not given)
  liver stage: i
O=C(Nc1ccon1)c1cc(-c2cccnc2)nc2ccc(Br)cc12
  liver stage: i
